VDR inh: vitamin D3 receptor (human) inhibition; VDR-SRC2-3 peptide fluorescence polarization, 2 h; Potency, µM, for the others: max response, negative = inhibition, usual class: inhibitors; actives 0.93% (n = 400,000); active means well fitted inhibition curve with a large enough effect; inconclusive means small, poorly fitted or top-dose-only effect, or another doubt; inactive means no such curve, though single readings can be large or run the other way; further: series mostly up to about 120 µM
Target sequence (P11473 whole entry, looked up): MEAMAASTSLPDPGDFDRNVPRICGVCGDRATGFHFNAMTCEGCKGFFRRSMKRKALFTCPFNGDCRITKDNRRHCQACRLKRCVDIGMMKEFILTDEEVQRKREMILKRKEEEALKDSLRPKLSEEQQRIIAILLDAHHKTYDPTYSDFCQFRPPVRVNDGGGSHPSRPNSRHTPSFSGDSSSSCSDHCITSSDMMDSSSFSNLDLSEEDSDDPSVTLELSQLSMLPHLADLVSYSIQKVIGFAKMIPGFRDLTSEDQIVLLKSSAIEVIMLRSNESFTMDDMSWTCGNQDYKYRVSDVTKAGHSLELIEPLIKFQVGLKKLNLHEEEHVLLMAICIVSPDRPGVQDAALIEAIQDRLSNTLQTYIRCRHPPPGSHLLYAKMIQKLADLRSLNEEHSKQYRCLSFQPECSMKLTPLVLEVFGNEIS
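After 23 nl compound addition and a short centrifugation, plates sat for 2 hours at ambient temperature; polarization of fluorescence then indicated loss of VDR binding to peptide SRC2-3.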
* hit, by the source's call; ? = inconclusive; & = joins results of further samples. On the % scale 0 is the no-effect control and ±100 the full control effect; potency means the concentration at half of the fitted maximal effect.

SMILES | VDR inh
Cc1onc(-c2c(Cl)cccc2Cl)c1C(O)c1ccccc1 (centres undefined) | -5%
Cc1cc(C)c(NC(=O)COC(=O)/C=C/c2cccc(C(F)(F)F)c2)c(C)c1 | -16%
COc1ccccc1/C=C/C(=O)Nc1nc2n(n1)C(c1ccc(F)cc1)C=C(c1ccccc1)N2 (centres undefined) | 2%
CCOC(=O)c1c(-c2ccccc2)oc2ccc(OCC(=O)O)cc12 | -10%
Cc1ccc(CN(C)C(=O)c2ccc(S(=O)(=O)N3CCCCCC3)cc2)o1 | -22%
Cc1c(NC(=O)C2CCN(S(=O)(=O)c3cccs3)CC2)c(=O)n(-c2ccccc2)n1C | -12%
BrC(=C\c1ccccc1)/C=N/Nc1nc(N2CCOCC2)nc(N2CCOCC2)n1 | ?
CCN(CC(=O)Nc1c(F)cccc1F)C(=O)c1cccc(-n2cccc2)c1 | 5%
COc1ccc(-c2nc(C)c(C(C)=O)n2O)cc1OC | 11%
Cn1nccc1CNC(=O)c1ccnn1C | -10%
O=C(COC(=O)c1cccnc1SCC(=O)NCc1ccccc1)NCc1ccccc1 | 15%
COc1ccc(OCCOc2ccc(/C=C3\C(=N)N4N=C(C)SC4=NC3=O)cc2)cc1 | -29%
O=C(CCn1cncn1)N1CCCC(N2CCN(c3ccc(F)cc3)CC2)C1 (centres undefined) | 8%
COc1ccc(N2CCN(C(=O)c3cccnc3SCc3cccc(Br)c3)CC2)cc1 | -4%
Cc1ccc(NC(=O)CSc2nc(N)c3cc4c(nc3n2)CCCC4)cc1 | 7%
COc1ccccc1CNC(=O)c1ccc(-n2c(C)cc3c2CCCC3)cc1 | 14%
COc1ncc2nc(-c3ccccc3)c(=O)n(CCC#N)c2n1 | 1%
COc1cc(C2c3cc4c(cc3C(O)[C@H]3COC(=O)C23)OCO4)cc(OC)c1OC (some centres undefined) | 12%&9%
CN(Cc1ccon1)C(=O)CC1C(=O)NCCN1Cc1ccc(Cl)c(F)c1 (centres undefined) | -18%
O=C(CN1CCN(S(=O)(=O)c2ccc(Br)cc2)CC1)Nc1ccc(F)cc1F | -8%
O=S(=O)(NCc1ccccc1)c1ccc(-c2cnc(C3CC3)o2)cc1 | 5%&-1%
COc1ccc(/C=C/C(=O)Oc2cccc(/C=N/NC(=O)COc3c(C)cccc3C)c2)cc1 | -15%
COC(=O)N1CCC[C@@]2(CCN(C(=O)Nc3cccc(C#N)c3)C2)C1 | -8%
Cc1cccc(OCCn2c(=O)n(C)c3ccccc32)c1 | 12%
CN(Cc1ccc(Cl)s1)C(=O)CNC(=O)CNC(=O)c1ccc(Cl)cc1Cl | -22%
COc1ccc(NC(=O)c2c(NCc3cccs3)sc3c2CCCCC3)c(OC)c1 | -5%
COC(=O)c1ccccc1NC(=S)N1CCN(c2ccccc2)CC1 | -4%
Cc1ccc(Cl)cc1NC(=O)CN1C(=O)c2cccc3cccc1c23 | -11%
COCCN(Cc1ccccc1)C(=O)c1cccc(S(=O)(=O)N2CCCc3ccccc32)c1 | -4%
COc1ccc(NC(=S)SC)cc1OC | -17%
O=C1c2cc(N3CCCC3)c([N+](=O)[O-])cc2C(=O)N1c1ccccc1 | -1%
Cc1cc(C([O-])=C(C(=S)Nc2ccc(F)cc2)[n+]2ccccc2)c(C)n1-c1ccc(F)cc1 | -15%
COc1ccc(C2C(C#N)=C(N)OC(C(C)(C)C)=C2C#N)cc1OC (centres undefined) | -8%
CCn1ncc(Br)c1C(=O)Nc1sc2c(c1C(N)=O)CCC2 | -14%
CCOC(=O)C1(CC2CCCCO2)CCN(C(=O)Nc2ccccc2SC)CC1 (centres undefined) | -4%
COC(=O)c1nn(-c2ccc(OC)cc2)c(=O)cc1Oc1cccc(Cl)c1 | -1%
CCN1C(C(=O)c2ccccc2)=C(OC(=O)COc2ccccc2)c2ccccc2S1(=O)=O | -6%
COCCN(CCOC)S(=O)(=O)c1ccc(C(=O)Nc2nc(C)c(C(C)=O)s2)cc1 | 5%
CCN(CC)C(=O)CSc1nnc(CSc2ncccn2)n1C | -4%
Cc1nn(CC(=O)Nc2ccc3c(c2)nc(CN2CCCCC2)n3C)c(=O)c2ccccc12 | -10%
CCN(CC(=O)Nc1ccc(C(=O)OC)cc1)C1CCCCC1 | -11%
COc1ccc(S(=O)(=O)N(C)CC(=O)NCc2ccc3c(c2)OCO3)cc1 | 1%
CC(C)CCNC(=O)CSc1c2c(nc3ccc(Cl)cc13)CCCC2 | -15%
O=C(N/N=C/c1cc([N+](=O)[O-])ccc1Cl)c1cnccn1 | -18%
Cc1snc(SCC(=O)c2ccc([N+](=O)[O-])cc2)c1C#N | ?
COc1ccccc1NC(=O)c1sc2ncn(Cc3cccc4ccccc34)c(=O)c2c1C | -4%
COC(=O)C1=C(N)Oc2cc(C)n(Cc3cccnc3)c(=O)c2C1c1cc(OC)ccc1OC (centres undefined) | 2%
Cc1cc(C)nc(N(C#N)Cc2cccc(Cl)c2)n1 | -10%
CCOC(=O)c1c(C)oc2nc(C)nc(N3CCN(c4ccc(OC)cc4)CC3)c12 | 6%
CCOC(=O)c1c(NC(C)=O)c2c3c(sc2n1Cc1c(C)cc(C)cc1C)CCCC3 | -2%

Given in CSV form: 16 of the compounds above.
Molecule,VDR inh
CCOC(=O)C1(CC2CCCCO2)CCN(C(=O)Nc2ccccc2SC)CC1 (centres undefined),-4%
COC(=O)c1nn(-c2ccc(OC)cc2)c(=O)cc1Oc1cccc(Cl)c1,-1%
CCN1C(C(=O)c2ccccc2)=C(OC(=O)COc2ccccc2)c2ccccc2S1(=O)=O,-6%
COCCN(CCOC)S(=O)(=O)c1ccc(C(=O)Nc2nc(C)c(C(C)=O)s2)cc1,5%
CCN(CC)C(=O)CSc1nnc(CSc2ncccn2)n1C,-4%
Cc1nn(CC(=O)Nc2ccc3c(c2)nc(CN2CCCCC2)n3C)c(=O)c2ccccc12,-10%
CCN(CC(=O)Nc1ccc(C(=O)OC)cc1)C1CCCCC1,-11%
COc1ccc(S(=O)(=O)N(C)CC(=O)NCc2ccc3c(c2)OCO3)cc1,1%
CC(C)CCNC(=O)CSc1c2c(nc3ccc(Cl)cc13)CCCC2,-15%
O=C(N/N=C/c1cc([N+](=O)[O-])ccc1Cl)c1cnccn1,-18%
Cc1snc(SCC(=O)c2ccc([N+](=O)[O-])cc2)c1C#N,?
COc1ccccc1NC(=O)c1sc2ncn(Cc3cccc4ccccc34)c(=O)c2c1C,-4%
COC(=O)C1=C(N)Oc2cc(C)n(Cc3cccnc3)c(=O)c2C1c1cc(OC)ccc1OC (centres undefined),2%
Cc1cc(C)nc(N(C#N)Cc2cccc(Cl)c2)n1,-10%
CCOC(=O)c1c(C)oc2nc(C)nc(N3CCN(c4ccc(OC)cc4)CC3)c12,6%
CCOC(=O)c1c(NC(C)=O)c2c3c(sc2n1Cc1c(C)cc(C)cc1C)CCCC3,-2%

Additional structures
SMILES | VDR inh
COc1cc(/C=C2/NC(=O)NC2=O)cc(Br)c1OCc1ccccc1 | 8%
CC(=O)NCC(=O)OCN1C(=O)c2ccccc2C1=O | 7%
CCCNc1nc(Cl)nc(NC(C)(C)C)n1 | -16%
COc1ccc(Nc2c(-c3ccc(C)o3)nc3cc(C)ccn23)cc1 | -8%
CCOP(=O)(OCC)C(Nc1ccccc1)c1ccco1 (centres undefined) | -2%
Cc1ncccc1C(=O)N1CCCC(CNC(=O)C2(c3ccc(Cl)cc3)CC2)C1 (centres undefined) | 8%
CCn1c(CCn2ccnc2C)n[nH]c1=S | 11%
COc1ccc(-c2cnc(C)o2)cc1S(=O)(=O)Nc1ccc(OC(F)(F)F)cc1 | 5%
O=C(O)CN1CCCCCC1=O | -16%
Cc1oc(-c2cccs2)nc1CS(=O)CC(=O)NC1CCCCCC1 (centres undefined) | ?
COc1ccc(C(CC(=O)Nc2ccc(OC)c(OC)c2)N2Cc3ccccc3C2=O)cc1 (centres undefined) | 12%
O=[N+]([O-])c1ccc(-c2nc(Nc3ccc(O)cc3)c3ccccc3n2)cc1 | 7%
C=C(C)CSc1nc2nc(C)cc(C)n2n1 | -19%
COC(F)(F)C(Cl)Cl | -10%
CC1CCCC(NC(=S)NC(=O)c2ccccc2Br)C1C (centres undefined) | -11%
COc1ccccc1C1N(c2ccc(Cl)cc2)C(=O)C2CCCN21 (centres undefined) | -1%
O=C(CSc1ccc(S(=O)(=O)N2CCOCC2)cn1)Nc1ccc(F)c(F)c1 | -14%
O=C(COC(=O)c1ccc(Cl)nc1)Nc1ccc(Cl)cc1 | -6%
COc1cc(CN2CCCCCC2)cc(OC)c1O | -16%
Cc1nc(NC(=O)c2cccc(-c3cc4ccccc4oc3=O)c2)ccc1Br | -20%
O=C(c1cc(Br)ccc1Cl)N1CCN(c2ccccn2)CC1 | -5%
C/C(=N\NC(=O)c1c[nH]c2ccccc12)c1ccc(C)s1 | 6%
Cc1ccc(C)c(CN2CCC(CNC(=O)Cn3ncc4c([nH]c5ccccc54)c3=O)CC2)c1 | 11%
COc1ccc(-n2c(SCC(=O)N(C)c3ccccc3)nc3c([nH]c4ccccc43)c2=O)cc1OC | -10%
COC(=O)CCC/C=C1\SC[C@@H](NC(=O)c2ccccc2)C1NC(C)=O (some centres undefined) | 4%
CC1CCCN(S(=O)(=O)c2ccc(NC(=O)Cn3nnc(-c4ccccc4F)n3)cc2)C1 (centres undefined) | 3%
N/C(=N\OC(=O)/C=C/c1ccccc1)c1ccccn1 | 2%
O=C(Nc1nnc(C2=COCCO2)o1)C1CCCCC1 | -3%
O=C(CCN1C(=O)c2ccccc2S1(=O)=O)Nc1ccc(F)c(F)c1F | 14%
CCCCNC(=S)Nc1ccc(C(F)(F)F)cc1 | 1%
O=C1/C(=C/c2ccccn2)SC(=S)N1Nc1ncc(C(F)(F)F)cc1Cl | 28µM*
COc1ccc(-c2cc(=O)c3c(OC)c(OC)c(OC)c(OC)c3o2)cc1OC | -9%&-17%
CC(=O)c1nnn(-c2nc(N)nc(N(c3ccccc3)c3ccccc3)n2)c1C | 8%
COC(=O)c1ccccc1NC(=S)N1CCN(c2ccc(OC)cc2)CC1 | -13%
CCOCCCNC(=O)c1ccc(NC(=O)C2=CSCCO2)cc1 | 4%
CSCc1ccc(C(=O)Nc2cccc(C)c2C)cc1 | -9%
Cc1ccc(C(c2sc3nc(C)nn3c2O)N2CC(C)OC(C)C2)cc1 (centres undefined) | -5%
Cc1ccc(C(=O)CC(c2cccs2)S(=O)(=O)c2ccc(C)cc2)cc1 (centres undefined) | -4%
O=C(NCCOC(=O)c1ccc([N+](=O)[O-])cc1)c1cccnc1 | -19%
COc1ccccc1C(c1c(O)cc(C)n(Cc2ccco2)c1=O)N1CCCCC1 (centres undefined) | -3%
COc1ccc(CCNC(=O)COC(=O)c2cncc(Br)c2)cc1OC | -1%
Cc1c(C(=O)OC2CCC(C)CC2)[nH]c2c1C(=O)CC(c1ccccc1Cl)C2 (centres undefined) | ?
O=C(NCc1cccc(Br)c1)c1cc(-c2ccccc2)nn1CC1CC(c2cccc([N+](=O)[O-])c2)=NO1 (centres undefined) | -2%
O=C(COc1ccccc1Cl)Nc1nc2c(s1)CCCC2 | 7%
COc1ccc(C2=CN(Cc3ccccc3)C(c3ccccc3)CC2=O)cc1 (centres undefined) | -8%
CC(C)(C)OC(=O)N1CCC[C@H]1C(=O)N/N=C/c1ccc2ncccc2c1 | -1%
O=c1cc(C=NNc2ccc([N+](=O)[O-])cc2)[nH]c(=O)[nH]1 | -16%
Cc1cccn2c(=O)cc(COc3cccc(NC(=O)c4ccccc4F)c3)nc12 | 6%
COCOc1ccc(C2CC(=O)c3c(OCOC)cc(OCOC)cc3O2)cc1 (centres undefined) | -12%
Cc1ccsc1C(=O)OCC(=O)NC1CCS(=O)(=O)C1 (centres undefined) | -18%
Further results follow:
SMILES | VDR inh
COc1ccc(-c2noc3c2-c2nc(-c4ccccc4Cl)sc2CC3)cc1 | -16%
CCCCn1nc(C(=O)N(C)CC(=O)Nc2ccc(F)c(F)c2F)ccc1=O | -16%
Cc1cccn2c(=O)c3cc(C(=O)NC4CCCCC4)c(=N)n(CCN4CCOCC4)c3nc12 | -11%
O=C(Nc1nc2c(s1)CCCC2)c1cccs1 | 16%
O=C(CCNc1ccc(F)cc1)c1ccco1 | 1%
Cc1nc(SCC(N)=O)[nH]c(=O)c1CCC(C)C | 12%
O=C(Nc1ccnn1C1CCN(C2CCCC2)CC1)c1ccccc1 | -9%
CCc1nc(SCC(=O)Nc2c(C)n(C)n(-c3ccccc3)c2=O)n[nH]1 | 1%
O=C(COc1ccc(S(=O)(=O)N2CCOCC2)cc1)Nc1ccccc1C(F)(F)F | 9%
Cc1nn(Cc2ccc(F)cc2)c(Cl)c1/C=N/NC(=O)c1cccnc1 | -20%
Cc1ccc(NC(=O)c2ncn(CCCN(CCCn3cnc(C(=O)Nc4ccc(C)c(C)c4)n3)Cc3ccc4[nH]ccc4c3)n2)cc1C | -4%
Nc1cc(N)nc(SCC(=O)Nc2cccc(S(=O)(=O)N3CCCCC3)c2)n1 | -7%
Cc1noc(C)c1NC(=O)Nc1ccc2c(c1)C(=O)N([C@H](C)CO)C[C@H](C)[C@@H](CN(C)S(=O)(=O)c1cccs1)O2 | -4%
Cc1cccc(-n2ncc3c(N4CCN(CCO)CC4)ncnc32)c1 | 10%
CCOc1ccccc1NC(=O)COC(=O)c1cc(C(=O)OC)cc([N+](=O)[O-])c1 | -5%
CC1=C(C(=O)OCc2ccccc2)C(c2cccc3ccccc23)NC(=O)N1CCCC(=O)O (centres undefined) | -24%
Cc1snc(S(=O)(=O)/C(C#N)=N/Nc2cccc(C(F)(F)F)c2)c1C#N | -10%
CCOc1ccc(NC(=O)CSc2nccn2C2CCCC2)cc1 | -1%
CC[C@@](N)(C(=O)O)c1ccc(C(=O)O)cc1 | 1%
CC(C)C(=O)Nc1cccc(NC(=O)c2cccc(Br)c2)c1 | -9%
COc1ccc(-c2cc(C(=O)N3CCN(S(=O)(=O)c4ccc(C)cc4)CC3)[nH]n2)cc1 | 4%
O=C(NN=Cc1ccccc1OC(F)F)c1cccc(S(=O)(=O)N2CCCC2)c1 | -4%
COc1ccc(/C(N)=N/OC(=O)Cc2ccccc2[N+](=O)[O-])cc1 | 0%
O=C(NCc1ccco1)c1ccc(C(=O)NCc2ccco2)s1 | -23%

Only part of the results is shown; count on the stated rates, not on these rows.
